PK Bst: alters activity of Bacillus stearothermophilus pyruvate kinase; partly purified Bacillus stearothermophilus pyruvate kinase, luminescence ATP production; ribose 5-phosphate activator present at AC10; Potency, µM; 51,000 tested, 1.2% active; AID 361; in the data active means potency below about 11 µM; inconclusive means mostly about 12 µM to 25 µM; inactive means weaker than that;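 the screen sought inhibitors and activators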;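 note: potency is the fitted concentration of half-maximal effect; scaled between full activation by ribose 5 phosphate and full inhibition by luteolin; about four in five hits inhibit and the cells do not say which; series up to 57 µM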
TsaE inh: displaces an ADP probe from E. coli YjeE (TsaE); P0AF67; purified YjeE, fluorescence polarisation of a bound ADP probe; Potency, µM; 71,000 tested, 0.05% active; AID 605; active = well fitted falling curve; inconclusive = weaker or top-dose-only fall, or a rising curve; inactive = flat or poorly fitted curve;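 note: top concentration of the series not given in the record; excess ADP was the control for the full effect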
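Fluorescence polarization of a BODIPY Texas Red–ADP probe (2 uM) bound to purified YjeE (10 uM) was read after 15 min room-temperature incubation with compounds. Loss of polarization marks inhibitors; ADP serves as titrated control.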
The depositor's hits bear a star; i = inactive; ? = inconclusive; / = not tested or not shown.

item | canonical_smiles | PK Bst | TsaE inh
1 | Cc1cccc(NC(=O)c2sc(NC(=O)c3ccco3)c(C#N)c2C)c1C | >57 | i
2 | O=C1CSC(=Nc2ccc(O)cc2)N1c1ccc(O)cc1 | >25.6 | /
3 | O=C(CCn1c(=O)[nH]c2ccccc2c1=O)N1CCN(c2cccc(C(F)(F)F)c2)CC1 | >57 | i
4 | COn1c(SCC(N)=O)nc2ccccc2c1=O | / | i
5 | O=S(=O)(CCc1ccccc1)N1CCOCC1 | / | i
6 | O=C(Nc1ccc(-c2nc3ncccc3o2)cc1)c1ccc(Br)o1 | >57 | i
7 | CC12CCC(=O)N1C(C(=O)O)Cc1c2[nH]c2ccccc12 (stereo not drawn) | >57 | i
8 | O=C(NCc1ccco1)c1cc2cc3ccc(Cl)cc3nc2o1 | >57 | i
9 | COc1ccc(CN(C(=O)CSc2nnc(-c3ccc(F)cc3)o2)c2ccc(F)cc2)cc1 | >57 | i
10 | O=c1c(-c2ccc(Cl)cc2)nc2cncnc2n1Cc1ccc(F)cc1 | / | i
11 | CC1=C(C(=O)Nc2ccccc2C)C(c2ccccc2)NC(=O)N1 (stereo not drawn) | / | i
12 | Cc1ccc(CNC(=O)[C@@H]2C[C@H]2[C@@H](NP(=O)(c2ccccc2)c2ccccc2)c2ccccc2)o1 | / | i
13 | Cc1[nH]n2c(=O)c(C#N)c(-c3ccccc3)nc2c1-c1ccccc1 | >57 | i
14 | CC[N+](C)(CC)CCN1C(=O)c2ccccc2S1(=O)=O | / | i
15 | Cc1cc(=S)cc(C)n1CCCn1ccnc1 | >57 | i
16 | COc1ccc(S(=O)(=O)NCCC(C)C)cc1OC | >57 | i
17 | Cc1noc(C)c1-c1ccc2ncnc(NCCN3CCOCC3)c2c1 | / | i
18 | CC1Cn2c(nnc2-c2ccccc2O)S1 (stereo not drawn) | / | i
19 | CCCCNc1nc2c(c(=O)n(C)c(=O)n2C)n1Cc1cccc(OC)c1 | >25.6 | /
20 | CCCOc1ccccc1C(=O)N(Cc1cccs1)C1CCS(=O)(=O)C1 (stereo not drawn) | >57 | i
21 | COC(=O)CC1=Nc2ccccc2NC(=O)C1 | >57 | i
22 | O=C(NCC1CCCO1)c1ccc(Cl)c(F)c1F (stereo not drawn) | >57 | i
23 | O=C(c1ccc(CNc2c(N3CCCC3)c(=O)c2=O)cc1)N1CCc2ccccc2C1 | / | i
24 | CC1Oc2ccccc2N(Cc2ccccc2F)C1=O (stereo not drawn) | >57 | i

The last four entries of the part above are carried over, then new ones follow:
item | canonical_smiles | PK Bst | TsaE inh
21 | COC(=O)CC1=Nc2ccccc2NC(=O)C1 | >57 | i
22 | O=C(NCC1CCCO1)c1ccc(Cl)c(F)c1F (stereo not drawn) | >57 | i
23 | O=C(c1ccc(CNc2c(N3CCCC3)c(=O)c2=O)cc1)N1CCc2ccccc2C1 | / | i
24 | CC1Oc2ccccc2N(Cc2ccccc2F)C1=O (stereo not drawn) | >57 | i
25 | COc1ccc(NC(=O)Nc2ccc(OCC(=O)N3CCOCC3)cc2)cc1OC | / | i
26 | CCOC(=O)CC(=O)CSc1nc(N)c(C#N)c(-c2ccc(F)cc2)c1C#N | >25.6 | /
27 | CCCn1c(C)nc2c(NCC3CCCN3CC)nc(C)nc21 (stereo not drawn) | / | i
28 | C[C@H]1CC[C@@H]2[C@@H](C)[C@H]3[C@H](C[C@H]4[C@@H]5CC=C6C[C@@H](O[C@]7(O[C@H]8O[C@@H](C)[C@@H](O)[C@@H](O)[C@@H]8O)C[C@@H](O[C@@H]8O[C@H](CO)[C@@H](O)[C@H](O)[C@@H]8O)[C@@H](O)[C@H](CO)O7)CC[C@]6(C)[C@H]5CC[C@@]34C)N2C1 | / | i
29 | CN(C)CCNC(=O)COc1cccc(Cl)c1 | >57 | i
30 | CCS(=O)(=O)CCSc1nc2c(cc1C#N)CCCC2 | >11.4 | i
31 | Cc1ccccc1-c1nc(CS(=O)(=O)CC(=O)N2CCc3ccccc3C2)c(C)o1 | / | i
32 | O=C(c1ccc2c(=O)n(C3CCCC3)c(=S)[nH]c2c1)N1CCN(C2CCCCC2)CC1 | >57 | i
33 | COC(=O)[C@@H](NC(=O)NCc1cccs1)C(C)C | >57 | i
34 | COc1ccc(F)cc1S(=O)(=O)N1CCCN(S(=O)(=O)c2cc(F)ccc2OC)CC1 | >57 | i
35 | O=C(OCCNc1ncc(C(F)(F)F)cc1Cl)c1ccc(S(=O)(=O)N2CCOCC2)cc1 | >57 | i
36 | CC(=O)OC[C@H]1O[C@@H](n2ccc(=O)[nH]c2=S)C(OC(C)=O)C1OC(C)=O (stereo partly drawn) | >57 | i
37 | CCOc1ccccc1NC(=O)CN(c1cc(C)cc(C)c1)S(=O)(=O)c1c(C)noc1C | / | i
38 | CS(=O)(=O)N1CCN(c2ccccc2NC(=O)CSc2ccc(Cl)cc2)CC1 | >57 | i
39 | O=C(c1ccc(Br)o1)N1CCN(Cc2ccc3c(c2)OCO3)CC1 | >57 | i
40 | Cc1ccc(S(=O)(=O)N2CCN(C(=O)C3COc4ccccc4O3)CC2)cc1C (stereo not drawn) | ? | i
41 | CC(C(=O)Nc1cccnc1)N1C(=O)c2ccccc2C1=O (stereo not drawn) | >57 | i
42 | COc1ccc(S(=O)(=O)NCC(c2cccnc2)N2CCN(C)CC2)cc1C (stereo not drawn) | / | i
43 | NCCCCCc1nnc(SCc2cccc(Cl)c2)o1 | >57 | i
44 | CCc1nnc2c3cnn(-c4ccc(C)c(C)c4)c3ncn12 | >57 | i
45 | COCCn1cc(C(=O)NCCCN2CCC(C)CC2)c2c3ccccc3n(C)c2c1=O | >57 | i
46 | COc1ccc(NC(C)=O)c2nc(C)c(C)nc12 | / | i
47 | O=C(NCc1ccco1)Nc1ccccc1Cl | >57 | i
48 | CN(C)c1cccc(C(=O)OCC(=O)NCc2ccco2)c1 | >57 | i
49 | COC(=O)c1ccc(CNC(=O)CSc2nc3sc(C)c(C)c3c(=O)n2C)o1 | >57 | i
50 | CN1CCC(OC(=O)COc2ccc(C(C)(C)C)cc2)CC1 | >57 | i
51 | O=C(Nc1ccc(F)cc1)N1CCN(C/C=C/c2ccccc2)CC1 | >57 | i
52 | COC(=O)C1CCN(C(=O)c2sc3nc(-c4ccccc4)cn3c2C)CC1 | >57 | i
53 | Cc1nc2ccccc2c2nc3ccccc3n12 | / | i
54 | COc1cc(OC)cc(-c2nc3cc(C)ccc3o2)c1 | i | i
55 | Nc1ccc2c(c1)CCC2=O | i | i
56 | Cc1cccc(C(=O)O)c1NC(=O)c1ccc(F)cc1 | >57 | i
57 | CN(C)CN1CSC(=S)N(CN(C)C)C1 | / | i
58 | Cc1cnc(NC(=O)C2CCCO2)s1 (stereo not drawn) | >57 | i
59 | CC(C)C[C@@H](CC(=O)N[C@@H](CCC(=O)O)CC(=O)O)NC(=O)[C@@H]1CCCC[C@H]1NC(=O)C[C@@H](NC(=O)C[C@H](Cc1ccccc1)NC(=O)[C@@H]1CCCC[C@H]1N)C(C)C | / | i
60 | Nc1nnc(CSCc2ccc(F)cc2)s1 | >11.4 | /
61 | CCOC(=O)C1=C(N)N2C(=O)C(C)SC2=C(C(=O)OCC)C1c1ccccc1 (stereo not drawn) | >57 | i
62 | Cc1ccc2[nH]c(=O)c(CNC(C)(C)C)cc2c1 | / | i
63 | CCc1ccccc1NC1=NCC(=O)N1Cc1ccccc1 | >57 | i
64 | N#Cc1c2n(c3c(=O)n(Cc4ccc(Cl)cc4)cnc13)CCCCC2 | / | i
65 | COc1ccccc1N1CCN(C(=O)C2CCN(S(=O)(=O)c3ccccc3)CC2)CC1 | / | i
66 | O=C(COC(=O)c1cccs1)NCCN1C(=O)CSC1=O | >57 | i
67 | c1coc(CNc2c3c(nc4ncnn24)CCCC3)c1 | >57 | i
68 | CCNc1ncc2nc(CCc3ccccc3)c(=O)n(CCC#N)c2n1 | / | i
69 | O=C(Cn1[nH]c(=O)c2ccccc2c1=O)Nc1ccc2c(c1)CCC2 | >57 | i
70 | COC(=O)Cc1c(C)nc2nc(-c3ccc(OC)cc3)[nH]n2c1=O | / | i
71 | CC(C)=CC(=O)OCC(=O)Nc1ccc(F)cc1Cl | >57 | i
72 | CCCC(NC(=O)CNC(=O)C(C)(C)C)C(=O)O (stereo not drawn) | >57 | i

Screen by screen, quoted from above:
PK Bst for nos. 65 to 72: /, >57, >57, /, >57, /, >57, >57

(cont.)
item | canonical_smiles | PK Bst | TsaE inh
73 | O=C1C2CC=C(Cl)CC2C(=O)N1CCc1ccccc1 (stereo not drawn) | >57 | i
74 | Cc1ccc2c(c1)N(CC(=O)N1CCc3ccccc3C1)C(=O)CO2 | / | i
75 | COCCn1c(C)cc(C(=O)CSc2nnc3ccccn23)c1C | / | i
76 | COc1ccccc1CNC(=O)C1CCCN1S(=O)(=O)c1cccc2cccnc12 (stereo not drawn) | / | i
77 | CCCNS(=O)(=O)c1ccc(CCC(=O)N2CCC(C)CC2)cc1 | >57 | i
78 | NC(=O)Cc1c[nH]c2cccc(O)c12 | >57 | i
79 | O=C(CS(=O)(=O)c1cn(Cc2cccc(F)c2)c2ccccc12)N1CCCCC1 | >57 | i
80 | CCC(=O)Nc1ccc(S(=O)(=O)N2CCc3ccccc3C2)cc1 | / | i
81 | CCOC(=O)N1CCN(CC(O)COCC2=CCC3CC2C3(C)C)CC1 (stereo not drawn) | >57 | i
82 | COc1ccc(N(CC(=O)Nc2cccc(SC)c2)S(C)(=O)=O)cc1 | / | i
83 | CC1(C)N=C2C(=[N+]1[O-])CCC/C2=N\O | / | i
84 | Cc1ccc(-n2nc3c([n+]2[O-])CCc2c-3no[n+]2[O-])cc1 | >57 | i
85 | Cc1cccc(N2CCN(C(=O)c3cc4c(=O)[nH]c5ccccc5c4n3C)CC2)c1C | >11.4 | i
86 | O=C(O)COc1ccc2occ(C(=O)c3ccccc3)c2c1 | >57 | i
87 | CCOC(=O)c1c(-c2cccs2)csc1NC(=O)CN1CC(C)OC(C)C1 (stereo not drawn) | >57 | i
88 | C[C@@H](CN1c2ccccc2Sc2ccccc21)N(C)C | / | i
89 | CN(C)c1ccc(CNn2cnnc2SCc2ccc(F)cc2)cc1 | >57 | i
90 | NC(=O)CSc1cn(CCNC(=O)c2cccs2)c2ccccc12 | / | i
91 | C/C=C/c1ccc(OCCSc2nc(C)cc(=O)[nH]2)c(OC)c1 | / | i
92 | CCCCN(C)CCCNC(=O)CS(=O)Cc1nc(-c2ccc(OC)c(OC)c2)oc1C (stereo not drawn) | >57 | i
93 | COc1cc(OC)cc(-c2nc3nc(C)c(CCC(=O)O)c(C)n3n2)c1 | >57 | i
94 | CN(C)C(=O)c1ccc(-c2nccc(N(C)Cc3ccco3)n2)cc1 | / | i
95 | O=C(CCc1ccccc1)Nc1cc(Cl)ccc1O | / | i
96 | CCc1ccccc1NC(=O)c1cnc2n(c1=O)CCS2 | / | i
97 | O=C(O)[C@@H]1CCCN[C@H]1C(=O)O | / | i
98 | CCOC(=O)c1c(CN2CCN(C)CC2)n(C)c2cc(Br)c(OC)cc12 | >11.4 | /
99 | Cc1ccc(N2C(=O)c3ccccc3C2O)nc1 (stereo not drawn) | / | i
100 | Cn1cc(CN2CCN(c3ccccc3)CC2)c2ccccc21 | >57 | i
101 | CCc1cc(Br)ccc1N1C(=O)C2CC=CCC2C1=O (stereo not drawn) | / | i
102 | Cc1oc2nc(SCCCC(=O)NCCCO)nc(N)c2c1C | >25.6 | /
103 | COCCn1c(=O)c(-c2ccccc2)nc2cncnc21 | / | i
104 | COC(=O)[C@@]1(Cc2ccc(F)cc2)[C@H]2c3cc(C(=O)N(C)C)n(CCSCCO)c3C[C@H]2CN1C(=O)c1ccccc1 | / | i
105 | O=C(O)CCC(=O)N(Cc1cccnc1)Cc1cccc(F)c1 | >57 | i
106 | c1ccc(Sc2nc(N3CCCCC3)nc(N3CCCCC3)n2)nc1 | / | i
107 | CCOC(=O)c1c(N)sc(C(=O)N2CCCCCC2)c1C | / | i
108 | O=C(c1cccc(F)c1)N1CCC2(CCCN(Cc3ccccc3)C2)CC1 | / | i
109 | OCCOCCOCCn1c2ccccc2c2ccccc21 | >57 | i
110 | COC(=O)c1[nH]c2ccc(C)cc2c1NC(=O)CN1CCN(Cc2ccccc2)CC1 | >11.4 | i
111 | CN1CCN(c2nc3cc(C(F)(F)F)ccc3n3cccc23)CC1 | / | i
112 | Cn1c(=O)[nH]c(=O)c2c1nc(N1CCc3ccccc3C1)n2CCSc1nc2ccccc2s1 | >57 | i
113 | CCCOc1nc2c(c(=O)n(C)c(=O)n2C)n1CC | >57 | i
114 | CN(C1CCS(=O)(=O)C1)S(=O)C12CC3CC(CC(C3)C1)C2 (stereo not drawn) | >57 | i
115 | CCCCn1cnc2c1c(=O)n(CC(=O)c1cc(C)n(C)c1C)c(=O)n2CC(C)C | >57 | i
116 | Cc1ccc(S(=O)(=O)N2C(=O)CCC2C(=O)Nc2ccc3c(c2)OCCO3)cc1 (stereo not drawn) | 2.28* | i
117 | COCCCNC(=O)CCSc1ccc(Cl)cc1 | / | i
118 | CC1CCN(S(=O)(=O)c2cccc(C(=O)N(C)C3CCS(=O)(=O)C3)c2)CC1 (stereo not drawn) | >57 | i
119 | Cc1ccc(NC(=O)COC(=O)c2ccc3c(c2)NC(=O)C2CCCN32)cc1C (stereo not drawn) | >57 | i
120 | COc1ccc(C2C(C#N)=C(N)Oc3cc(C)n(Cc4ccncc4)c(=O)c32)cc1 (stereo not drawn) | >57 | i
121 | COC(=O)c1cc(NC2c3ncccc3C(=O)N2Cc2ccccc2)cc(C(=O)OC)c1 (stereo not drawn) | >57 | i
122 | Cc1[nH]c2ccc(C(=O)OCCN(C)C)cc2c1C | / | i
123 | Nc1ccc(C(=O)NCC(=O)O)cc1 | / | i
124 | N=c1sccn1CC(=O)NCCc1ccc(Cl)cc1 | >57 | i
125 | CCOC(=O)c1[nH]nc(N)c1NC(=O)c1ccc(Cl)cc1Cl | i | i

Screening results: PubChem, National Center for Advancing Translational Sciences (NCATS)

Only part of the results is shown; rates above refer to the full screens.
